Compound activity as filed in PubChem BioAssay.
Mtb hypoxia inh = reduces hypoxia-regulated biosensor signal in M. tuberculosis. M. tuberculosis hypoxia-regulated fluorescent reporter, fluorescence. fluorescence inhibition, % (test concentration not listed). hit rate 0.1% among 300,000;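 active = 35 to 45% if threefold the growth effect, above 45% if 1.5-fold the growth effect; inactive = the rest, general growth blockers included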;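 also: wells of about 50 µL received 100 nL stock; 0% = vehicle wells and 100% = reference inhibitor wells; whole bacteria with a GFP reporter of the hypoxia response; strong numbers were not always called active; many hits fall short of the cut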
PrP UTR inh = inhibition of PrP 5' UTR reporter expression; cell-based PrP 5' UTR mRNA reporter, plate reader; inhibition, % (no concentration beside the values); hit rate 0.35% among 340,000; AID 488862;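 active = every replicate at 50% or more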;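 also: 0 = median of the neutral control wells; tested in H4 reporter cells; numbers are from one replicate; inactives centre near -14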
Sa RN4220 lethal = S. aureus RN4220 growth inhibition. inhibition, % (test concentration not listed). hit rate 0.33% among 330,000. AID 1259311. OD600, 16 h;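 active = z-score of -3 or lower and OD600 up to 0.18 on both plates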;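 also: plate controls were untreated cells for no effect and reference antibiotic for full effect; stock transfer was 100 nL into about 80 µL; one replicate is shown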
Autofluor counter = counter-screen for toxin protease inhibitors: compound fluorescence. compound autofluorescence counterscreen, microsphere flow cytometry; stronger effect = higher value. fluorescence intensity (concentration not given with the values). hit rate 3.1% among 360,000. AID 624483;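 active = at least 3 SD above the mean of all compounds, about 16000 in these data; inconclusive = too few beads counted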;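 also: 100 nL of 1 mM stock went into each well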
Sa ugtP lethal = kills S. aureus RN4220 lacking UgtP | hit rate 0.54% among 330,000 | growth inhibition, % (concentration not given with the values) | S. aureus RN4220 ugtP deletion, OD600 growth, 16 h; some inactives read as strong as hits;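 active = z-score under -3 and OD600 up to 0.15 on both plates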;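 also: plate controls were untreated wells for no effect and antibiotic for full effect; wells of about 80 µL received 100 nL stock; the first replicate is given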
BJeLR lethal = kills HRASV12-expressing BJeLR cells; BJeLR (HRASV12) viability, CellTiter-Glo ATP luminescence, 48 h; reference of the scale not given here; inhibition, % (test concentration not listed); hit rate 0.17% among 300,000; AID 1554;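 active = replicate mean above 50%; inconclusive = above 50% but judged a plate artefact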;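 also: 50 nL library stock added to about 25 µL; numbers are from one replicate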
Mtb hypoxia inh growth = also measured in Mtb hypoxia inh; calls as there; growth inhibition, %; measured here: M. tuberculosis growth (absorbance);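 0% = vehicle and 100% = reference antibiotic; read after six days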
* = called active by the depositor; ? = inconclusive; · = no result given; & = joins results of further samples. Compounds as they come, and some 4.1% of all compounds hit somewhere here.

structure	Mtb hypoxia inh growth	Sa RN4220 lethal	PrP UTR inh	BJeLR lethal	Mtb hypoxia inh	Autofluor counter	Sa ugtP lethal
Cc1csc(NN=Cc2c(F)cccc2Cl)n1	9	3.4	·	·	17	·	19
CCCc1nc2nc(C)c(NS(=O)(=O)c3ccc(C(C)(C)C)cc3)c(=O)n2[nH]1	10	0.3	-8	-3	9	3346	1
O=C(NC(=S)Nc1cccc(NC(=O)c2ccccc2)c1)c1cccc([N+](=O)[O-])c1	-3	3.0	-11	6	12	2057	2
COc1ccc(N2CCN(c3ncnc4c3cnn4-c3ccc(C)cc3C)CC2)cc1	7	-2.6	-6	7	10	9112	-13
O=C(NCc1ccccc1Cl)C(=O)NCC1CCCN1S(=O)(=O)c1cccs1 (configuration not stated)	5	-0.5	-8	9	4	?	1
COc1ccc(/C=C/C(=O)OCC(=O)c2c[nH]c3ccccc23)cc1	2	3.5	-1	·	-1	10023	-2
CCCCOC(=O)n1c(=O)oc2ccc(S(=O)(=O)N3CCCCC3)cc21	3	2.1	·	7	8	?	2
ClC1(Cl)CC1CSc1ncn[nH]1 (configuration not stated)	-11	2.1	-11	-10	-8	3834	3
COc1ccc(-c2noc(CCC(=O)N3CCN(c4cc(C)ccc4C)CC3)n2)cc1	·	0.9	-7	3	·	2828	6
Cc1cc(C)cc(C(=O)NC(=S)Nc2cccnc2)c1	5	-2.9	-5	-11	-6	5761	23
O=C(O)c1cccc(NC(=O)c2cc(NC(=O)c3ccccc3)cc(NC(=O)c3ccccc3)c2)c1	6	1.2	-7	3	1	3490	3
COc1ccc(S(=O)(=O)Nc2cccc3c2OC(CN(C)S(=O)(=O)c2ccccc2)C(C)CN(C(C)CO)C3=O)cc1 (configuration not stated)	5	7.0	·	·	4	·	-15
C=CCC(CC(=O)OC(C)(C)C)C(=O)OCC1CCCN1C(=O)C(CC=C)CC(=O)N(CCO)Cc1ccccc1 (configuration not stated)	11&8&7&6	2.2&3.9&6.3&5.1	·	·	3&13&6&4	·	3&1&-19&-8
COc1cc(/C=N/N2C(=O)c3ccccc3NC2(C)c2cccc([N+](=O)[O-])c2)cc(Br)c1O (configuration not stated)	·	·	-17	8	·	2417	·
COc1ccc(C(=O)OCC(=O)c2ccc(S(=O)(=O)N3CCCCC3)cc2)c(OC)c1	-2	0.6	5	·	-5	·	5
O=C(NC1=NN(c2ccccc2)CC1)Nc1ccccc1F	3	-5.6	-23	10	8	3892	4
Cc1c(NC(=O)CSc2ccc(Cl)cc2)c(=O)n(-c2ccccc2)n1C	6	3.4	-11	0	8	4554	12
O=C(CCC1COc2ccccc2O1)NCC1COc2ccccc2O1 (configuration not stated)	·	4.6	-5	-9	·	2551	0
c1cncc(CNc2nc(-c3cccnc3)nc3ccccc23)c1	10	-0.7	1	3	-1	2898	-6
CC(C(=O)NCC1CCCCC1)N(C)Cc1cccc(Cl)c1 (configuration not stated)	12	2.4	-21	1	13	3662	1
CSc1ccc(S(=O)(=O)NCCSC(C)(C)C)cc1	20	1.7	-16	8	12	11104	10
CC(C)OC(=O)C(=Cc1ccc2c(c1)c1ccccc1n2C)NC(=O)c1ccccc1	-20	1.6	·	·	-29	·	-11
O=C(NC1(C(F)(F)F)NC(=O)N(CCc2ccccc2)C1=O)C1CC1 (configuration not stated)	5	1.5	-28	-13	10	2161	3
C=CCOn1c(=O)c(-c2cc3ccccc3o2)[n+]([O-])c2ccccc21	·	12	-11	0	·	2656	-8
C[C@@H](NC(=O)[C@@H]1Cc2ccccc2CN1)C(=O)NCc1ccco1	3	4.1	-33	-9	8	5144	-4
Cc1cccc(Nc2cc(=O)[nH]c(=O)[nH]2)c1C	·	·	-1	5	·	2004	·
COC(=O)NN=Cc1ccc(OC/C=C/c2ccccc2)c(OC)c1	13	2.3	·	·	9	·	6
CN(C)/C(=N\S(=O)(=O)c1ccc(Cl)cc1)c1ccc(F)cc1	·	·	-8	-9	·	4309	·
C(=NN(c1ccccc1)c1ccccc1)c1ccc2c(c1)OCO2	1	-1.9	·	·	4	·	95*
Nc1c(NCCC2=CCCCC2)c(=O)[nH]c(=O)n1Cc1ccccc1	5	-3.3	-20	-14	4	4644	-3
Cc1ccccc1C(=O)NNC1=NCCC1	6	8.5	-21	2	7	17045*	7
Cc1ccc(C(=O)N/C(=C\c2ccccc2F)c2nc(=S)[nH][nH]2)cc1	8	5.0	-13	1	8	4381	14
Nc1ccc(N=Nc2ccccc2)c2cccnc12	4	-8.6	·	0	-2	3382	83
CC(C)(C)c1nc2scc(-c3cccs3)c2c(=O)o1	·	-3.5	-26	1	·	2467	38
COc1ccccc1OCC(=O)N1CCN(C(=O)c2ccco2)CC1	0	0.6	-6	-3	3	6296	0
C=CCn1c(SCC(=O)Nc2cccc(C)c2)nnc1-c1cnccn1	4	5.8	-4	1	7	15536	5
COc1ccccc1CNC(=O)/C=C/c1ccc(S(=O)(=O)N2CCOCC2)cc1	3	3.1	-7	-5	-4	4439	4
Cc1ccc(C(=O)NC(C)C2CC3CCC2C3)cc1 (configuration not stated)	·	4.4	·	-5	·	4309	2
COC(=O)c1ccc(C(C(=O)NC2CCCCC2)N(CCc2ccccc2)C(=O)Cc2cccs2)cc1 (configuration not stated)	-1	4.9	-8	6	1	2190	0
S=c1[nH]nc(NCCCN2CCOCC2)s1	-8	3.6	-16	7	-2	3788	2
CCN1CCN(Cc2ccc(NC(=O)c3ccc(C)c(NC(=O)c4c[nH]c5cc(C(F)(F)F)ccc5c4=O)c3)cc2C(F)(F)F)CC1	·	5.1	5	18	·	3226&4782	13
CC1CCCCN1C(=O)CCS(=O)(=O)Cc1ccccc1 (configuration not stated)	-8	1.0	-25	-14	-2	5080	1
CN(C)/C=C/c1onc(-c2c(Cl)cccc2Cl)c1C#N	10	-7.7	-18	5	6	3179	-12
C/C(=N\NC(N)=S)C1(C)CCCCC1	·	·	-22	-12	·	2519	·
CCOc1cc(C(=O)O)ccc1OCCOc1ccccc1	0	0.2	-14	-7	-9	4978	12
COc1ccc(NS(=O)(=O)c2ccc(S(=O)(=O)N3CCCC3)cc2)cc1Cl	1	7.7	-14	5	17	6912	-3
CCCS(=O)(=O)N1CCC(C(=O)N2CCc3ccccc3C2)CC1	·	·	-20	-1	·	2918	·
CC(=O)N1CCc2cc(S(=O)(=O)NCCC(=O)N3CCN(c4ccccn4)CC3)ccc21	2	2.4	-20	-7	5	4241	13
CS(=O)(=O)Nc1ccc(C2=NN(S(C)(=O)=O)C(c3ccc4nccnc4c3)C2)cc1 (configuration not stated)	13	3.1	-11	5	-2	5826	4
CCOC(=O)N1CCC(NC(=O)C2CCN(C(=O)c3cc4oc(C)cc4n3Cc3c(F)cccc3Cl)CC2)CC1	11	-0.3	-6	4	-4	1988	3

(listing goes on)
structure	Mtb hypoxia inh growth	Sa RN4220 lethal	PrP UTR inh	BJeLR lethal	Mtb hypoxia inh	Autofluor counter	Sa ugtP lethal
CCOC(=O)COc1ccc2c(c1)C(=O)CC1(CCN(C(C)=O)CC1)O2	2	1.8	-20	-2	2	23933*	1
COc1ccc(/C=N/n2c(C)nnc2C)c(OC)c1	·	·	-15	-2	·	3154	·
CC(C)c1csc(CN2CCC(N3CCC(C(=O)NCC4CCCO4)CC3)CC2)n1 (configuration not stated)	14	1.5	-19	11	11	4484	4
O=C(Cc1ccccc1Cl)N1CCN(c2ncccn2)CC1	4	6.9	-5	2	3	3868	4
Cc1oc(-c2cccc(Cl)c2)nc1CN1CCC(C(=O)NCCCN2CCCC2=O)CC1	·	0.2	4	9	·	6279	-9
COc1ccc2c(c1)c1ncn(Cc3ccc(F)cc3)c(=O)c1n2C	-5	3.2	·	-5	-5	·	-9
COC(C(=O)Nc1ccnn1C1CCN(Cc2cnn(C(C)C)c2)CC1)c1ccccc1 (configuration not stated)	-5	1.2	-33	-3	3	6241	4
COC(=O)c1ccccc1NC(=O)CCC(=O)N1CC(C)Oc2ccc(C)cc21 (configuration not stated)	9	-11	-10	-5	-1	5118	-2
Clc1cccc(/C=N/Nc2nnc(Cl)c3ccccc23)c1	·	·	-68	2	·	10619	·
Cn1c(O)c(C2=c3ccccc3=NC2=O)[nH]c1=S	·	·	-16	13	·	2133	·
O=C(Cn1cc(C(F)(F)F)ccc1=O)NN=Cc1ccccc1O	12	1.7	·	·	10	·	7
CCOc1ccc(N2CC(C(=O)Nc3ccc(S(=O)(=O)N4CCCC4)cc3)CC2=O)cc1 (configuration not stated)	-3	1.7	-17	-3	-15	3457	4
N/C(COc1cccc(C(F)(F)F)c1)=N\NC(=O)c1cccnc1Oc1ccccc1	-1	1.0	-8	0	10	3389	10
O=C(NC(=S)NNC(=O)c1ccco1)c1ccc(F)cc1	9	26	-6	0	-9	5290	1
Cc1ccc(CNS(=O)(=O)c2c(C)[nH]c(C)c2C(=O)N2CCCCC2)cc1	0	2.0	-14	-6	-5	4725	0
O=C(Nc1ccc2c(c1)OCO2)OC1CC2CCCC(=O)N3CCC(C1)C23 (configuration not stated)	14	7.7	·	·	9	·	3
Cc1ccsc1C=NNC(=O)c1nnn(-c2nonc2N)c1C	-4	-1.0	·	·	7	·	-3
CC(C1CC1)N(Cc1ccccc1)C(=O)NC(=O)c1cccc(F)c1 (configuration not stated)	4	-5.6	-19	5	6	4434	4
O=C(Nc1cccc(F)c1)C1CCN(c2nnnn2-c2ccccc2)CC1	0	5.8	-3	-2	6	15912	4
CCOC(=O)CSc1nc(C)c(CC)c(C)c1C(N)=O	0	6.8	-16	-2	13	4551	2
C/C(Sc1nnc(Cc2ccccc2)o1)=C(\O)c1ccccc1	8	4.5	-25	·	6	3928	1
Cc1cc(C)n2cc(CSc3nc4ccccc4[nH]3)nc2n1	-3	-6.0	5	1	-11	2257	-6
COc1ccc(C2CC(c3ccc(Br)cc3)=NN2C(=S)Nc2ccccc2)cc1 (configuration not stated)	5	7.0	-56	-4	10	2808	2
O=C(CNC(=O)c1cccs1)OCC(=O)c1ccc2ccccc2c1	5	5.3	-7	-4	4	4390	1
Clc1ccc(C=NNc2nnc(-c3ncc[nH]3)c3ccccc23)cc1	9	-1.0	·	·	5	·	5
Cc1onc(-c2ccccc2Cl)c1C(=O)NCCN1Cc2ccccc2C1=O	6	5.0	-25	-12	7	8467	6
Cc1ccc(C(=O)NCCCC(=O)O)o1	7	3.1	-14	8	9	3705	-2
Cc1ccc2nc(C)cc(NN=Cc3cccc(O)c3)c2c1	2	0.4	·	·	7	·	1
CCOC(=O)c1c(N=Cc2cccc(C)c2O)sc2c1CCN(C)C2	2	5.9	·	·	5	·	2
COc1cc(NC(=O)c2ccc3c(c2)OCO3)ccc1NC(=O)c1ccco1	·	0.1	2	0	·	4735	-1
O=C(CSc1n[nH]c(-c2cccnc2)n1)OC1CCCCC1	6	1.4	-16	6	0	4505	-1
Cc1cc2oc(=O)cc(Cn3ccnc3)c2cc1O	-8	0.3	-9	3	6	3229	2
O=C(OCCCOC(=O)c1ccc(O)cc1)c1ccc(O)cc1	3	7.8	-9	-3	5	4771	-7
Cc1ccc(NC(=O)CN2C(=O)c3ccccc3C2=O)cc1	-4	-2.7	-12	0	-1	4533	-1
Cc1cc(C=Nn2cnnc2)c(C)n1-c1ccc(OCc2ccccc2F)cc1	-7	-1.5	·	·	8	·	-18
COc1cc(NC(=O)c2ccco2)c(OC)cc1NC(=O)Nc1ccc(Cl)cc1	3	7.0	-5	0	-4	8760	13

Profiles from above. Order of values: Mtb hypoxia inh growth | Sa RN4220 lethal | PrP UTR inh | BJeLR lethal | Mtb hypoxia inh | Autofluor counter | Sa ugtP lethal
Shown for Cc1c(NC(=O)CSc2ccc(Cl)cc2)c(=O)n(-c2ccccc2)n1C : 6 | 3.4 | -11 | 0 | 8 | 4554 | 12
Shown for CC(C1CC1)N(Cc1ccccc1)C(=O)NC(=O)c1cccc(F)c1 (configuration not stated) : 4 | -5.6 | -19 | 5 | 6 | 4434 | 4
